T cruzi repl = inhibitors of intracellular T. cruzi growth, primary screen, luminescence, NIH3T3 host cells; inhibition, % (no concentration beside the values); hit rate 1.4% among 300,000; T. cruzi beta-gal in NIH3T3, 90 h; AID 1885, 2009;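 active = mean inhibition across valid replicates above about 55%, limit read from the data; inconclusive = mean below that limit but half or more replicates reach it; inactive = mean below it, under half of replicates reach it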;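 note: signal also drops with host cell toxicity which is not excluded here; 0% = plate median of DMSO wells and 100% = zero luminescence signal; higher percent means less beta-gal luminescence so fewer parasites; stock transfer was 50 nL into about 50 µL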
Beta apoptosis = inhibitors of cytokine-induced beta cell apoptosis, primary screen, luminescence | protection from apoptosis, % (concentration not given with the values) | AID 435005, 2010 | INS-1E cytokine-induced death, ATP luminescence, 48 h; percent of positive-control rescue, neutral wells zero | hit rate 0.8% among 300,000;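 active = all replicates at 75% or more, or half of them and the mean; inconclusive = half reach 75% but not the mean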;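 note: 0% = cytokine-treated negative control wells and 100% = positive control rescue; higher means more ATP so stronger rescue from cytokine killing; wells of about 40 µL received 100 nL stock; the first replicate is given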
LANA-H2B inh = blockers of LANA interaction with H2A/H2B – biochemical, FP readout, HTS, primary screen. cell-free LANA-H2A/H2B peptide, fluorescence polarization. inhibition, % (test concentration not listed). hit rate 0.6% among 320,000; in the data active = inhibition mostly above about 10%, no sharp cut-off; inactive = mostly below about 6.7%;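 note: stock transfer was 7.5 nL into about 10 µL; 0% = median of vehicle wells and 100% = median of positive control wells; one replicate is shown; the record names a cut of 25% in any replicate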
Target sequence (Q9QR71 whole entry, looked up): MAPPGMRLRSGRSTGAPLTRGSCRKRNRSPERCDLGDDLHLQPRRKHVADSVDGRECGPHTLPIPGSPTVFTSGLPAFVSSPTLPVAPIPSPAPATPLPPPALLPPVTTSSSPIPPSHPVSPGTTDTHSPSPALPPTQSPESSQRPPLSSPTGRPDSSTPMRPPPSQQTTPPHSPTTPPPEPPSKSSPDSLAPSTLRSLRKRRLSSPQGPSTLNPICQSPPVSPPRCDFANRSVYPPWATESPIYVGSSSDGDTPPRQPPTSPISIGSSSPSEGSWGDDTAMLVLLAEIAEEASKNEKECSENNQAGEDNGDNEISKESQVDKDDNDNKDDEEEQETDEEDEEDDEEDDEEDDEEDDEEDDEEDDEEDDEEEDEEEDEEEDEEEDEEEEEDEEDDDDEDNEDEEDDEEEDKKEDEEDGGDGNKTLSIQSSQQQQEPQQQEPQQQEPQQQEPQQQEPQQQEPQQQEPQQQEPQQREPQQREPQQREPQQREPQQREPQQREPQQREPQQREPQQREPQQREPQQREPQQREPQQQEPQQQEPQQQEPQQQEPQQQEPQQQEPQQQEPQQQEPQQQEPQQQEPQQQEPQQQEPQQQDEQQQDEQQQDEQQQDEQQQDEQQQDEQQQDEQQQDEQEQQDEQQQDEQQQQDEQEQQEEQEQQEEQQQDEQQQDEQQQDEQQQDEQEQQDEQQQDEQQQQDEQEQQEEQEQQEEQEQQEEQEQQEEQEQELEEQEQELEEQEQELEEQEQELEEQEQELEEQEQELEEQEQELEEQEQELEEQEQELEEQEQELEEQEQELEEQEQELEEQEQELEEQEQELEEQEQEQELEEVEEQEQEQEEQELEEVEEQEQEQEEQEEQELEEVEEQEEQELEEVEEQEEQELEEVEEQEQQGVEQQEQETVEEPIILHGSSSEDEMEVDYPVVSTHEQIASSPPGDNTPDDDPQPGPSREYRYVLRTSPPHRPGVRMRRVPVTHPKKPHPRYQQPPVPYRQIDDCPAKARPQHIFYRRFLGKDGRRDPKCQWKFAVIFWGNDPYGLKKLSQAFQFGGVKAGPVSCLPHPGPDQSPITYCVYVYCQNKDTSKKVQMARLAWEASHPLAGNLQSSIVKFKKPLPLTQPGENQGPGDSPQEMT
UCH37 inh = inhibitors of human UCH37 deubiquitinase, primary screen, biochemical, Ub-AMC cleavage, fluorescence | Ubiquitin carboxyl-terminal hydrolase isozyme L5 (Homo sapiens), Q9Y5K5 | purified proteasome/UCH37 | inhibition, % (no concentration beside the values) | hit rate 0.33% among 330,000 | AID 588478, 2011;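 active = mean of two replicates above 20%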;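 note: 0% = compound-free wells with enzyme and 100% = wells lacking proteasome; stock transfer was 100 nL into about 20 µL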
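Assay system: Proteasome-bound UCH37. Buffer or medium: pH 7.4 Tris-HCl (50 mM) with ovalbumin, ATP-MgCl2, DTT. Incubation: 30 min preincubation with enzyme, 25 min cleavage at room temperature. Measured by: fluorescence, ex 355 nm, em 460 nm. Read-out basis: percent inhibition. Control set: wells without proteasome as full block, compound-free enzyme plus substrate as uninhibited.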
Calb FLC = C. albicans growth inhibition with fluconazole, primary screen, CaCi-2 strain, Alamar Blue fluorescence | hit rate 0.57% among 300,000 | AID 1979, 2009 | C. albicans CaCi-2 (fluconazole-resistant clinical isolate) + fluconazole, 48 h | growth inhibition, % (test concentration not listed);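 active = most replicates above 75%; inconclusive = exactly half above 75%; inactive = most below 75%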;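 note: all wells also contain fluconazole at 8 µg/ml as a sub-toxic cotreatment; 0% = median of DMSO wells and 100% = median of geldanamycin control wells; wells of about 8 µL received 7.5 nL stock; the first replicate is given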
Bfl-1 A1 inh = caspase 3/7 activation in MEF A1-2A-BIM cells, primary screen, A1 inhibitor project, cell-based, luminescence, HTS | Caspase-Glo 3/7 luminescence, 3 h; percent of clofoctol response, vehicle zero | AID 2462, 2010 | caspase activation, % (test concentration not listed) | hit rate 0.066% among 330,000;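 active = over half of replicate activation scores above 10%, or exactly half above 10 with the replicate mean above 10; inconclusive = replicate mean below 10 yet half the replicates above 10; inactive = over half of replicates below 10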;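 note: wells of about 30 µL received 50 nL stock; many hits fall short of the cut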
RanGTP-Imp inh = inhibitors of RanGTP-importin-beta interaction, primary screen, biochemical, FRET, CFP-Ran, YFP-importin-beta, homogeneous. hit rate 1.1% among 300,000. Ran GTPase (GTP-bound) - importin-beta complex. AID 2216, 2009. inhibition, % (test concentration not listed). cell-free CFP-Ran/YFP-importin-beta FRET ratio;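 active = most replicates above 15%; inconclusive = exactly half above 15%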;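 note: 0% = DMSO wells and 100% = Ran loaded with GDP instead of GTP; wells of about 40 µL received 100 nL stock; the first replicate is given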
B2AR ag = beta2AR agonists driving receptor internalization, primary screen, cell-based, FAP fluorogen, flow cytometry | Beta-2 adrenergic receptor (Homo sapiens), P07550 | Am2.2-beta2AR cells; reference of the scale not given here | response, % (test concentration not listed) | hit rate 0.43% among 340,000;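 active = response above a set limit, near 3 SD of response in nonfluorescent compounds, cut at about 42% in these data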;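 note: stock transfer was 100 nL into about 11 µL; a reference agonist was the positive control; negative values mostly stem from fluorescent compounds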
The depositor's hits bear a star; u = inconclusive; x = not tested or not shown.

SMILES	T cruzi repl	Beta apoptosis	LANA-H2B inh	UCH37 inh	Calb FLC	Bfl-1 A1 inh	RanGTP-Imp inh	B2AR ag
CN(CC(=O)NCc1ccc2c(c1)OCO2)S(=O)(=O)c1ccc(Br)s1	5	x	-3.1	0.6	-24	0.3	1.5	7
CC1=CC(C)C2C(=O)N(c3ccccc3)NC(=O)C2C1 (stereo not given)	4	-7	5.5	6.0	-3	0.0	-5.6	17
CC(OC(=O)CCc1cc(C(C)(C)C)c(O)c(C(C)(C)C)c1)C(=O)NC1CC1 (stereo not given)	2	-25	1.2	6.8	8	-0.6	-1.9	2
O=C(CN1CCN(c2ccc(F)cc2)CC1)NCc1ccc(F)cc1	13	-2	2.4	5.0	-4	0.3	-5.9	13
CNc1ccccc(-c2ccc3ccccc3n2)c1=O	1	-5	x	x	-11	0.9	2.5	-7
O=C(Nc1ccccc1)OCc1cc(-c2ccc(Cl)cc2)on1	x	-2	-2.0	-4.7	2	-0.3	1.0	-6
CC(C)(C)/C=N/NC(=O)CNC(=O)c1ccc2c(c1)OCCO2	-11	-10	1.2	x	-5	0.6	3.2	-8
CC1CCCC(C)N1C(=O)CN1C(=O)C(C)(C)Oc2ccc(C(=O)NC3CCCC3)cc21 (stereo not given)	40	4	-0.7	-3.1	41	0.4	2.4	3
Cc1ccc(NC(=S)Nc2ccc(OC(F)F)c(Cl)c2)cc1F	37	2	-0.9	7.0	-27	-0.2	2.3	8
Cc1ccc(/C=N/NC(=O)c2ccncc2)s1	-8	-6	3.2	x	-1	0.5	-2.5	-12

Single records, as listed above.
CC1=CC(C)C2C(=O)N(c3ccccc3)NC(=O)C2C1 (stereo not given) is entered as T cruzi repl: 4; Beta apoptosis: -7; LANA-H2B inh: 5.5; UCH37 inh: 6.0; Calb FLC: -3; Bfl-1 A1 inh: 0.0; RanGTP-Imp inh: -5.6; B2AR ag: 17
CC(C)(C)/C=N/NC(=O)CNC(=O)c1ccc2c(c1)OCCO2 is entered as T cruzi repl: -11; Beta apoptosis: -10; LANA-H2B inh: 1.2; UCH37 inh: x; Calb FLC: -5; Bfl-1 A1 inh: 0.6; RanGTP-Imp inh: 3.2; B2AR ag: -8
CC1CCCC(C)N1C(=O)CN1C(=O)C(C)(C)Oc2ccc(C(=O)NC3CCCC3)cc21 (stereo not given) is entered as T cruzi repl: 40; Beta apoptosis: 4; LANA-H2B inh: -0.7; UCH37 inh: -3.1; Calb FLC: 41; Bfl-1 A1 inh: 0.4; RanGTP-Imp inh: 2.4; B2AR ag: 3

Other records
SMILES	T cruzi repl	Beta apoptosis	LANA-H2B inh	UCH37 inh	Calb FLC	Bfl-1 A1 inh	RanGTP-Imp inh	B2AR ag
C=CCN(CC=C)C(=O)COn1nnc2ccc(S(=O)(=O)N3CCOCC3)cc21	-7	-9	3.9	2.3	0	-0.1	x	2
NC(=O)CSc1nnc(Cn2cnc3ccccc32)o1	-7	-15	-0.4	0.0	-4	-0.4	5.1	-3
COc1cccc(CN2CCN(Cc3ccccc3C(F)(F)F)CC2)c1	0	3	10	1.9	4	-0.1	0.4	-20
Cc1[nH]c(=S)c(C#N)c(C)c1CC(=O)c1ccc(Br)cc1	0	x	3.5	0.9	19	0.2	0.6	16
O=C(O)CCCNC1=NCCC1	-10	-6	-3.4	-1.0	-8	1.2	3.0	2
Cc1cccc(OCC(=O)N/N=C/c2cccn2C)c1	-10	-2	-1.1	x	11	1.5	1.9	2
CC(C)Cc1nnc(NC(=O)C23CC4CC(CC(C4)C2)C3)s1	21	2	-2.8	4.1	4	-0.8	-0.1	-10
O=Nc1ccc(NOC(=O)c2ccccc2Br)cc1	4	-11	3.1	6.2	25	-1.4	5.1	-2
O=C(Nc1ccc2oc(-c3ccncc3)nc2c1)c1ccco1	-16	10	8.0	-81	8	-0.4	2.3	-16
CCn1ncc(C2=NOC(C(=O)NCCc3ccccc3)C2)c1C (stereo not given)	-12	1	-9.5	-4.1	5	1.4	12	-6
COCCCNc1nc2ccccc2nc1NS(=O)(=O)c1cc(Cl)ccc1Cl	-5	6	2.9	-41	47	1.3	-2.7	-3
CC1=CN2CC(O)CN=C2C=C1 (stereo not given)	-10	-2	1.6	-112	-1	0.9	-2.2	6
Cc1ccccc1C(C(=O)NC1CCCC1)N(C(=O)CNC(=O)c1ccco1)c1cccnc1 (stereo not given)	14	-3	-0.5	0.7	5	-0.1	-2.5	x
CC(C)OP(=O)(OC(C)C)C(NC(=O)c1ccccc1Br)C(N)=O (stereo not given)	0	-1	-5.4	2.8	9	-0.4	-0.1	1
NS(=O)(=O)c1ccc(CCN2C(=O)/C(=C\c3ccc(Cl)cc3)SC2=S)cc1	16	45	-0.6	x	-11	0.4	0.5	-1
CCOc1cc(NC(=O)CCl)c(OCC)cc1NC(=O)CCl	17	-3	-0.9	2.2	3	0.2	1.4	-2
O=C(NNC(=O)c1ccc[nH]1)c1cc(Cl)cc(Cl)c1	1	-5	-4.7	6.5	6	0.1	-5.2	11
Cc1ccc(C)c(Oc2cc(NC(=O)CCCn3nc(C)c([N+](=O)[O-])c3C)cc([N+](=O)[O-])c2)c1	52	19	x	1.8	0	-0.8	3.3	0
CC(C)(C)NC(=O)NC(=O)COC(=O)Cc1coc2ccc3ccccc3c12	-15	-2	5.4	3.4	-5	-0.3	5.4	-5
C=CCSc1nnc(N2C(=O)C(O)=C(C(=O)c3ccco3)C2c2ccccc2F)s1 (stereo not given)	-7	-5	1.9	11	2	-1.3	-12	14
Cc1ccc(S(=O)(=O)Nc2cccc(C(=O)NCc3ccccn3)c2)cc1F	3	1	-9.3	3.4	1	0.6	x	2
CCCCN(C(=O)CCCc1nc2ccccc2c(=O)[nH]1)c1c(N)n(CC(C)C)c(=O)[nH]c1=O	x	0	-3.5	1.6	x	-0.6	x	-5
CC(=O)N1CCN2C(=O)C1CCCC(=O)c1cc(C(C)C)ccc12 (stereo not given)	1	-4	2.6	-1.9	6	0.6	u	-5
O=C(Nc1cccc(-c2ccc(N3CCOCC3)nn2)c1)c1ccc(Cl)cc1	5	14	-3.7	-1.4	6	-0.1	0.7	4
C=CCN1C(=O)S/C(=C/c2ccc(Sc3nc4ccccc4[nH]3)o2)C1=O	-15	-1	-1.9	-4.8	-2	-0.9	3.0	-10
COc1cccc(Nc2nnc(SCC(=O)N(CC(C)C)CC(C)C)s2)c1	41	13	-3.0	4.0	29	0.5	5.0	-24
Cc1ccc(C2(C)NC(=O)N(CC(=O)Nc3cc(S(=O)(=O)N4CCCCC4)ccc3OC(C)C)C2=O)cc1 (stereo not given)	14	-1	0.6	1.2	-4	-1.1	2.0	1
CCS(=O)(=O)c1nn2c(N)c(/C=C3/C=CC(=O)C(OC)=C3)c(=O)nc2s1	7	-4	-15	22*	-2	0.9	3.8	7
COC(=O)CNC(=O)CSc1nnc(-c2ccc(OC)cc2)n1CC(C)C	-5	-3	4.9	4.1	6	1.7	2.6	-3
Cc1cccc(NC(=O)Cn2nnc(C(=O)Nc3ccc(F)c(Cl)c3)c2N)c1	1	1	-4.9	0.0	39	0.4	-0.7	4
CCc1cc2c(-c3ccccc3)cc(=O)oc2cc1OC(C)C(=O)NCC1CCC(C(=O)O)CC1 (stereo not given)	-11	2	-0.2	-1.8	-3	-0.5	-3.7	1
O=C(CCc1ccccc1)Nc1c(F)cccc1F	-8	-1	7.6	1.5	-18	1.8	-2.4	6
S=C(NCCc1ccccc1)NCCc1ccccc1	3	4	0.1	2.5	-19	-1.6	-0.7	1
O=C(CN1C(=O)c2ccccc2C1=O)NC1CCC(O)CC1 (stereo not given)	x	-4	2.8	3.8	x	-0.3	x	-2
CC(=O)Nc1ccc(NC(=O)C(C)OC(=O)CNC(=O)c2cccs2)cc1 (stereo not given)	-8	-7	5.1	4.8	3	0.5	-3.8	-6
N#CC1=C(N)Oc2n[nH]c(-c3ccccc3)c2C1c1ccncc1 (stereo not given)	-11	-5	0.2	2.7	-4	-0.4	u	-12
COc1ccc(N(CC(=O)Nc2cc(OC)c(OC)cc2C(=O)O)S(=O)(=O)c2c(C)noc2C)cc1	-16	-2	3.0	2.2	8	-0.3	0.1	-7
O=C(c1ccc2ccccc2n1)N1CCN(c2ccccc2Cl)CC1	-9	-13	8.6	-3.8	-1	0.2	4.4	6
CC(=O)SCCC(=O)Nc1ccccc1	-14	-9	0.4	2.6	-9	0.8	2.5	-5
COC(C[C@H](O)C[C@@H](O)COCc1ccccc1)OC	-2	x	x	1.7	-7	x	0.5	-1
COC(=O)/C(=C/c1cccnc1)NC(=O)c1ccccc1	-20	-5	0.4	1.7	u	0.5	-1.9	4
CCOC(=O)C1CCCN(C(=O)c2ccc(Cl)c(S(=O)(=O)N3CCCCC3)c2)C1 (stereo not given)	17	5	2.0	x	10	0.9	u	3
O=C(NC(=S)NNC(=O)[C@H]1C[C@@H]1c1ccccc1)c1cccc(F)c1	58*	11	4.4	2.3	61	0.4	-4.1	3
O=S(=O)(Nc1nc2ccc(S(=O)(=O)N3CCCC3)cc2s1)c1ccc(F)cc1	-19	-10	5.9	-2.3	0	0.7	-3.8	-10
CC1(C)C2CC[C@]3(C)C(CC=C4[C@@H]5C[C@@](C)(CO)CC[C@]5(C(=O)O)CC[C@]43C)[C@@]2(C)CC[C@@H]1O (stereo not given in full)	17	-7	0.7	4.0	-2	u	1.7	x
CCc1ccc(/C=C2\SC(=S)N(CCCC(=O)Nc3nccs3)C2=O)cc1	-17	x	3.7	5.3	-9	-0.5	-0.5	3

In another format: four of the compounds above.
| molecule | T cruzi repl | Beta apoptosis | LANA-H2B inh | UCH37 inh | Calb FLC | Bfl-1 A1 inh | RanGTP-Imp inh | B2AR ag |
| --- | --- | --- | --- | --- | --- | --- | --- | --- |
| C=CCSc1nnc(N2C(=O)C(O)=C(C(=O)c3ccco3)C2c2ccccc2F)s1 (stereo not given) | -7 | -5 | 1.9 | 11 | 2 | -1.3 | -12 | 14 |
| Cc1ccc(S(=O)(=O)Nc2cccc(C(=O)NCc3ccccn3)c2)cc1F | 3 | 1 | -9.3 | 3.4 | 1 | 0.6 | x | 2 |
| CCCCN(C(=O)CCCc1nc2ccccc2c(=O)[nH]1)c1c(N)n(CC(C)C)c(=O)[nH]c1=O | x | 0 | -3.5 | 1.6 | x | -0.6 | x | -5 |
| CC(=O)N1CCN2C(=O)C1CCCC(=O)c1cc(C(C)C)ccc12 (stereo not given) | 1 | -4 | 2.6 | -1.9 | 6 | 0.6 | u | -5 |

Source: PubChem

Outcome played no part in choosing rows (roughly 4.3% active in at least one column).
